Screens: PubChem BioAssay, National Center for Advancing Translational Sciences (NCATS)
GLA inh pH 4.5 = qHTS Assay for Inhibitors of Human alpha-Galactosidase at pH 4.5; Alpha-galactosidase A (Homo sapiens), P06280; activity change, negative = inhibition, % at 105 µM; purified enzyme, 4-MU-alpha-Gal fluorescence, pH 4.5; 230,000 tested, under 10 active; inconclusive = small, poorly fitted or top-dose-only inhibition, or a rising curve; inactive = flat fitted curve, though single readings scatter; no compound was filed as active;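 also: 0% = full activity with enzyme and -100% = basal without enzyme; dose as in the result columns while the protocol names 77 µM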
Rango release inh = qHTS Assay for Inhibitors of RanGTP induced Rango (Ran-regulated importin-beta cargo) - Importin beta complex dissociation. Potency, µM (doses to about 46.1 µM), for inactives: top-dose activity change, negative = inhibition. Snurportin-1 (Homo sapiens) + GTP-binding nuclear protein Ran (Homo sapiens) + Importin …. AID 540253, 2011. Biochemical FRET Rango-importin beta, RanGTP-induced dissociation. 0.071% of 340,000 active; active means falling FRET ratio curve, often poorly fitted, with flat reads before Ran was added; inconclusive means other falling curves, or compound fluorescence or quenching; inactive means flat or rising ratio curve;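 also: potency is read from the fitted curve at half-maximal effect; % of control where 0% means no effect; nearly all actives have a fitted effect of over 45% in size; -100% = wells without RanGTP and RCC1; the record marks most hits as doubtful in a second field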
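Two FRET readings bracket the reaction: one 5 min after compound meets Rango–importin beta, another 45 min after RanGTP-RCC1 (0.6 uM Ran, 0.2 uM RCC1, 2 mM GTP) is added. Only the second defines inhibition.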
Rango complex inh = qHTS Assay for Inhibitors of Rango (Ran-regulated importin-beta cargo) - Importin beta complex formation; Potency, µM (highest dose often 92.2 µM), for inactives: top-dose inhibition of complex formation; Rango CFP/YFP FRET sensor + importin beta, 45 min; Importin subunit beta-1 (Homo sapiens), Q14974; 0.031% of 340,000 active; active = rising FRET ratio curve, often small or poorly fitted; inconclusive = mostly compound fluorescence or quenching in the first reads; inactive = flat curves in all reads;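 also: potency is read from the fitted curve at half-maximal effect; 0% = DMSO wells and 100% = buffer wells lacking importin beta; nearly all actives have a fitted effect of over 15% in size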
Target sequence (Q14974 whole entry, looked up): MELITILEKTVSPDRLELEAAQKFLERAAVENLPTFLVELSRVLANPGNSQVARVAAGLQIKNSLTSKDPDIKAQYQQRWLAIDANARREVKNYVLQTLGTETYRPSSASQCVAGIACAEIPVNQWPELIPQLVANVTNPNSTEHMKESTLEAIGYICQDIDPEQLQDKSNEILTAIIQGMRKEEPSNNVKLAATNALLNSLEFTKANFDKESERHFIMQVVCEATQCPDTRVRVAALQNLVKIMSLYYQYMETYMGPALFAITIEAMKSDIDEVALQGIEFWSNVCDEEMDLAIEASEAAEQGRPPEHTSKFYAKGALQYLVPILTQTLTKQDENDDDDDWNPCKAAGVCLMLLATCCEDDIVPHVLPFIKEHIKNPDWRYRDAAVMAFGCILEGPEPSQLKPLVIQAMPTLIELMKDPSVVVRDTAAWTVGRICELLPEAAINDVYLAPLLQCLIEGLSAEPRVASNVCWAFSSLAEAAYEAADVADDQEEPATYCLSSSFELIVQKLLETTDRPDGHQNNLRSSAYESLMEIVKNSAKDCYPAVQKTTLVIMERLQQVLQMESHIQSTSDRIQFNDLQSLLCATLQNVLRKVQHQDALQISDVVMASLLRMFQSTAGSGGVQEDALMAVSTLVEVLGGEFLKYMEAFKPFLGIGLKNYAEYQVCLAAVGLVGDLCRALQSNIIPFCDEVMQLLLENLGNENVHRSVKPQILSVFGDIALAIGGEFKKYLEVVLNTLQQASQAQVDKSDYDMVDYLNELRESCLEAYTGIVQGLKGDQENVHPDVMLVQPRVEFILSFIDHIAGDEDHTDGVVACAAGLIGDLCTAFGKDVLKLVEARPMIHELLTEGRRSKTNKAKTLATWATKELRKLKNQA
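Inhibition scored from the CFP 486 nm/YFP 530 nm FRET ratio 45 min after adding 0.125 microM importin beta to 50 nM Rango biosensor preincubated 5 min with compound (room temperature, PBS with DTT, Tween-20, BSA). No-importin wells as positive control.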
miR-21 FLuc = qHTS Assay for Modulators of miRNAs and/orActivators of miR-21. 340,000 tested, under 10 active. Potency, µM (series often up to 38.3 µM), for inactives: at the highest dose reporter change, positive = more light. HeLa miR-21 FLuc reporter, luciferase, 48 h; active = well fitted rising curve with a large enough effect; inconclusive = small, poorly fitted or top-dose-only effect; inactive = no such curve, though single readings can be large or run the other way;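 also: % of control where 0% means no effect; miR-21 action dims this reporter so a rising signal means less miR-21 action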
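Luminescence from a firefly luciferase reporter carrying a miR-21 binding site downstream, stably expressed under a CMV promoter in HeLa cells that make miR-21 endogenously, reports miRNA modulation after 48 h compound exposure up to approximately 40uM final.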
* hit, by the source's call; ? = inconclusive; . = not tested or not shown. An excerpt, so the mix of outcomes need not match the whole.

cpd	structure	GLA inh pH 4.5	Rango release inh	Rango complex inh	miR-21 FLuc
1	CSC1=NC(=O)/C(=C\c2cccc3ccccc23)S1	-14	5%	?	-4%
2	CC(=O)C1=C(C)OC(N)=C(C#N)C1c1cccc2ccccc12 (centres undefined)	6	5%	0.8%	0%
3	CCCCn1c2c(c(=O)n(C)c1=O)C(c1ccc(OC)cc1)N1CCCCCC1=N2 (centres undefined)	-8	-3%	-2.5%	-3%
4	COc1cccc(C2CCCN2Cc2nc(CCC(C)C)no2)c1 (centres undefined)	-20	2%	3.6%	-4%
5	Cc1ccc(N(CC(=O)NCCc2ccc(F)cc2)S(=O)(=O)c2ccc(Cl)c([N+](=O)[O-])c2)c(C)c1	-9	12%	-1.4%	?
6	CN(C)/C=N/c1ncc(C(=O)c2ccc(Cl)cc2)s1	0	-25%	?	-31%
7	CCN(CCCNC(=O)c1ccc(N2CCCC2=O)cc1)c1cccc(C)c1	7	0%	-5.9%	9%
8	COc1ccc(NC(=O)/C(C#N)=C/c2ccc(OCc3ccccc3F)cc2)cc1	0	22%	-0.7%	-2%
9	Cc1cc(N2CCOCC2)cc(C)[n+]1[O-]	0	-1%	-5.0%	0%
10	O=C(N/N=C/c1coc2ccccc2c1=O)c1cc(Br)c(O)c(Br)c1	.	-3%	-1.7%	3%
11	CCOC(=O)C(=O)N1CCN(c2nc(-c3ccc(Cl)cc3)cs2)CC1	.	-6%	-2.4%	1%
12	CC(C)Cc1cc(CNC(=O)C2CCC(=O)N(CCc3cccc(F)c3)C2)on1 (centres undefined)	.	15%	-3.6%	?
13	O=C(c1ccc2c(c1)OCO2)N1CCN(S(=O)(=O)c2ccc(Br)cc2Cl)CC1	.	0%	-2.3%	.
14	CC(=O)c1ccc(NS(=O)(=O)c2c(C)cc(C)cc2C)cc1	-4	2%	1.9%	-28%
15	COc1ccc(CCN(C(=O)c2snc(C(N)=O)c2N)C(C)C(=O)NC2CCCCC2)cc1OC (centres undefined)	.	0%	-1.7%	-3%
16	Cc1ccc(CN2CC(C(=O)NCCCSc3ccccc3)CC2=O)cc1 (centres undefined)	.	-6%	7.4%	-1%
17	Cc1ccc(NC(=O)c2nc[nH]c2C(=O)NCCCCCNC(=O)OC(C)(C)C)cc1	.	-1%	-7.8%	.
18	CCCCCc1nnc(NS(C)(=O)=O)s1	15	0%	-2.4%	-3%
19	COc1cccc(/C=C(/C#N)c2ccc(Cl)cc2)c1OCc1cccc(C(=O)O)c1	-12	16%	-2.6%	-14%
20	Cc1cc(C2(c3cc(C)c(NC(=O)CN4CCOCC4)c(C)c3)CCCCC2)cc(C)c1NC(=O)CN1CCOCC1	3	2%	1.9%	-2%
21	O=C(NCc1cccc(F)c1)c1cccc2c1C(=O)c1ccc(N3CCC(Cc4ccccc4)CC3)cc1S2(=O)=O	.	?	?	.
22	COc1ccc(NC(=O)COC(=O)C2CC(=O)N(c3ccc(OC(C)C)cc3)C2)cc1 (centres undefined)	.	-16%	2.0%	0%
23	Cc1c(C(=O)Nc2nc3ccccc3[nH]2)cccc1[N+](=O)[O-]	7	11%	0.2%	-44%
24	Cc1ccc(OCC(=O)Oc2c(C)cccc2C)cc1C	.	-7%	7.3%	1%
25	COc1ccc(C(=O)/C=C/C(=O)N(Cc2ccc(F)cc2)C(C(=O)NC2CCCCC2)c2ccncc2)c(O)c1 (centres undefined)	-16	4%	-0.1%	12%
26	CN1C(=O)N(CC(=O)N2CCN(S(=O)(=O)c3ccc4c(c3)CCC4)CC2)C(=O)C12CCCCC2	.	0%	-3.5%	.
27	Cc1ccc(COc2ccc(Br)cc2/C=N/O)cc1	-3	17%	2.9%	-28%
28	Cc1ccc(C(=O)NNC(=O)c2ccc(-n3cncn3)c([N+](=O)[O-])c2)cc1	.	1%	-2.7%	.
29	COc1ccc(CCCNC(=O)C2CCC(=O)N(Cc3ccccc3F)C2)cc1 (centres undefined)	.	-9%	0.1%	-10%
30	CCOC(=O)C1(CCOC)CCN(Cc2cccc(OCc3ccccc3)c2)CC1	.	2%	-0.7%	11%

Molecules shown so far that contain an NH in an aromatic ring:
cpd	structure	GLA inh pH 4.5	Rango release inh	Rango complex inh	miR-21 FLuc
17	Cc1ccc(NC(=O)c2nc[nH]c2C(=O)NCCCCCNC(=O)OC(C)(C)C)cc1	.	-1%	-7.8%	.
23	Cc1c(C(=O)Nc2nc3ccccc3[nH]2)cccc1[N+](=O)[O-]	7	11%	0.2%	-44%

More entries.
cpd	structure	GLA inh pH 4.5	Rango release inh	Rango complex inh	miR-21 FLuc
31	CC1CCCN(C(=O)c2ccc(Cl)c(S(=O)(=O)N3CCCCCC3)c2)C1 (centres undefined)	.	18%	3.0%	.
32	COc1ccc(-c2cc(CNS(=O)(=O)c3ccc(F)cc3)on2)cc1	-1	-2%	3.3%	12%
33	Cc1ccc(N2CCN(CCc3nc4cc(NS(C)(=O)=O)ccc4n3C)CC2)cc1	0	14%	-1.8%	10%
34	Cn1c(=O)c2c(nc(N3CCCCC3)n2CCCNC2=NCCCC2)n(C)c1=O	7	-7%	-2.3%	-6%
35	CC(C)(C)NC(=O)C(c1ccccc1)N(Cc1cccs1)C(=O)c1csnn1 (centres undefined)	-1	-10%	-3.9%	-1%
36	O=C1CC(c2ccccc2Cl)Cc2c1cnn2-c1nc2ccccc2s1 (centres undefined)	-7	.	.	-3%
37	C=CC(=O)Nc1cccc(Oc2ccnc3[nH]ccc23)c1	.	1%	-0.2%	.
38	O=C(c1cccc(S(=O)(=O)N2CCc3ccccc32)c1)N1CCN(c2ccccc2)CC1	.	-5%	-2.9%	.
39	c1ccc(CNc2c3c(nc4ncnn24)CCC3)cc1	6	-6%	-2.2%	-2%
40	Cc1ccc(CSc2nc3ccccc3c(=O)n2Cc2ccco2)cc1	-15	26%	3.6%	-10%
41	CN(C)C(CNC(=S)Nc1ccccc1)c1cccnc1 (centres undefined)	1	9%	1.3%	-11%
42	Cc1ccc(CN(c2ccc(C(=O)NCc3cccnc3)cc2)S(C)(=O)=O)cc1	-4	17%	0.0%	11%
43	Cc1ccc(OCCOc2ccc(Br)cc2)c([N+](=O)[O-])n1	-3	-9%	0.1%	-76%
44	CC(C)CNC(=O)CO/N=C/c1ccccc1Cl	-4	-16%	0.2%	-5%
45	C=CCSc1nc(=O)n2ccc(C)cc2n1	-10	5%	-0.5%	-34%
46	Cc1cc(Nc2nc3ccccc3nc2Cl)n(-c2ccccc2C)n1	-2	2%	0.0%	26%
47	COc1cc(CCCN2C(=O)C(=O)NC[C@@H]2CCCCN)cc(OC)c1OC	-4	3%	3.7%	-1%
48	CCCCC1(C(=O)OCC)CC(CN2CCOCC2)OC1=O (centres undefined)	-3	-16%	-7.4%	-1%
49	COc1cc(C(=O)N2CCN(S(=O)(=O)c3cccc(F)c3)CC2)ccc1OCC(=O)N1CCOCC1	.	9%	-2.7%	.
50	COc1cccc(NC(=O)N2CCN(c3nnnn3-c3ccccc3)CC2)c1	10	-3%	1.4%	5%
51	COc1ccc(C(=O)CSc2nc3ccc([N+](=O)[O-])cc3[nH]2)cc1	-24	-3%	0.4%	-4%
52	COC(=O)c1cc(NC(=O)CC2NCCNC2=O)cc(C(=O)OC)c1 (centres undefined)	0	17%	6.6%	0%
53	CCN(C(=O)c1ccc(Cl)cc1[N+](=O)[O-])c1ccccc1C	1	-7%	-0.1%	11%
54	CCCN1CCN(C(=O)c2ccc(CS(=O)c3ccc(Cl)cc3)o2)CC1 (centres undefined)	.	-1%	-1.6%	0%
55	COC(=O)CSc1nc(SCc2ccccc2Cl)nc2c1CCCC2	-6	-10%	-2.3%	-10%
56	O=C(NCCNC(=O)c1cc(Cl)ccc1Cl)c1ccccn1	.	9%	-1.0%	1%
57	NC(=O)C1CCN(C(c2ccccc2Cl)c2nnnn2CC2CCCO2)CC1 (centres undefined)	-1	7%	-0.1%	-1%
58	O=c1ccn([C@@H]2O[C@H](CNS(=O)(=O)c3cc4ccccc4s3)[C@@H](O)[C@H]2O)c(=O)[nH]1	.	1%	4.7%	.
59	O=C(CNC(=O)N1CC(=O)Nc2ccccc21)NCCc1cccc(F)c1	.	10%	0.3%	1%
60	O=C1CN(C(=O)c2ccccc2C(=O)O)c2ccccc2N1	.	3%	4.0%	-3%
61	CCc1cc(=O)oc2c(C)c(OCC(=O)N3CCC[C@@H]3C(=O)O)ccc12	.	-10%	-0.5%	-4%
62	CC(OC(=O)c1ccc(Cl)c(S(=O)(=O)Nc2ccc(F)cc2)c1)C(=O)NC(N)=O (centres undefined)	-4	-14%	0.5%	-2%
63	CC(OC(=O)COc1ccccc1[N+](=O)[O-])C(=O)Nc1ccc(N2CCOCC2)cc1 (centres undefined)	-1	-14%	-1.4%	-12%
64	O=C(c1cc(F)ccc1F)C1CCCN(C(=O)c2cccs2)C1 (centres undefined)	1	4%	-2.4%	-9%
65	CCn1cc(C(=O)NCc2ccccc2Cl)cn1	8	4%	2.6%	-6%
66	COc1ccc(OC(C)C(=O)N2CCCc3ccccc32)cc1 (centres undefined)	1	3%	-1.3%	0%
67	COc1ccc(CSc2nc(C)cc(=O)[nH]2)cc1Br	-3	1%	8.6%	-6%
68	c1n[nH]c(NC2=NCCC2)n1	4	-2%	-1.4%	-1%
69	Cc1csc(SCC(=O)N(C)C2CCS(=O)(=O)C2)n1 (centres undefined)	.	-6%	6.0%	.
70	CN(c1ccc(C(=O)Nc2cccc(O)c2)cc1)S(=O)(=O)c1ccccc1	.	-2%	-0.9%	-4%
71	C=CCSc1nc2sc(C)c(C)c2c(=O)n1CC=C	-4	3%	0.1%	-3%
72	Cc1ccc(-c2nc(S(=O)(=O)c3ccc(C)cc3)c(N(C)C)o2)cc1	.	-11%	-0.2%	-2%
73	COc1ccc2oc(C)c(C(=O)NN)c2c1	5	1%	-1.8%	-3%
74	COc1ccc(CNC(=O)c2cccc(S(=O)(=O)N3CCN(C)CC3)c2)cc1	-2	18%	1.6%	5%
75	COC(=O)C1=C(C)NC(=S)N(C(C)=O)C1c1ccc(OC)c(OC)c1 (centres undefined)	0	?	0.0%	-2%
76	CC(C)(C)c1ccc(-c2c(C(=O)O)c(C(=O)O)c3n2CSC3)cc1	.	8%	4.6%	-9%
77	NC(=O)c1ccsc1NC(=O)COC(=O)C1=NNC(=O)CC1	.	22%	0.3%	.
78	CC(C)N1CCc2c(sc(NC(=O)Cc3ccccc3)c2C(N)=O)C1	.	?	?	0%
79	COc1ccc(CNC(=O)NCc2ccc(OC)c(OC)c2)cc1OC	0	15%	-2.6%	-5%
80	COc1ccc(OCC(O)CN2CCN(c3ccc(OC)cc3)CC2)cc1 (centres undefined)	.	16%	-0.2%	-3%
81	COc1ccc(S(=O)(=O)n2ccc(-c3ccc(OCCN(C)c4ccccn4)cc3)n2)cc1	-12	-1%	0.9%	12%
82	O=c1oc2ccccc2c(Nc2ccccc2)c1CN1CCCCC1	0	9%	-2.1%	-22%

Three structures out of the list, ordered by SMILES length, ascending.
cpd	structure	GLA inh pH 4.5	Rango release inh	Rango complex inh	miR-21 FLuc
65	CCn1cc(C(=O)NCc2ccccc2Cl)cn1	8	4%	2.6%	-6%
82	O=c1oc2ccccc2c(Nc2ccccc2)c1CN1CCCCC1	0	9%	-2.1%	-22%
63	CC(OC(=O)COc1ccccc1[N+](=O)[O-])C(=O)Nc1ccc(N2CCOCC2)cc1 (centres undefined)	-1	-14%	-1.4%	-12%
